D2 potentiator: positive allosteric modulators of human D2 dopamine receptor | potentiation, % (concentration not given with the values) | P14416 | DiscoveRx D2 beta-arrestin cells, luminescence, 90 min; 100% = 57 uM dopamine signal | 360,000 tested, 0.23% active | AID 624464; active = potentiation of 50% or more; inconclusive = 30% to 50%; inactive = 30% or less;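 further: compound concentration not given in the record; tested on top of an EC20 dose of dopamine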
Target sequence (P14416 whole entry, looked up): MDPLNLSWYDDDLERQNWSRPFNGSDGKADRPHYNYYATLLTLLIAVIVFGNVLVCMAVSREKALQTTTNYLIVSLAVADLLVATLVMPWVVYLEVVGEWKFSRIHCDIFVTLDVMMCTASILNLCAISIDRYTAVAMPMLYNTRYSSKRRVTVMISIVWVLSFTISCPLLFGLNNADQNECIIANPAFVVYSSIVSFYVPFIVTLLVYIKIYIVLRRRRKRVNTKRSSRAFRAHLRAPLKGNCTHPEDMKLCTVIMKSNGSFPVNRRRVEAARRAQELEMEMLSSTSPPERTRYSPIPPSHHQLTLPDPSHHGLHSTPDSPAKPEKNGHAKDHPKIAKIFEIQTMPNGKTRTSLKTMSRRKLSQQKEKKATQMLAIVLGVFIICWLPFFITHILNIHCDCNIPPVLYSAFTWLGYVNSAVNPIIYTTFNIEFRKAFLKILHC
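D2 cells co-treated with compound plus 50 nM dopamine (EC20) for 90 min at 37 deg C to detect potentiation. Beta-arrestin recruitment was read as enzyme-fragment luminescence after 1 h at ambient temperature. Full response was set by 57 uM dopamine.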
CtBP-E1A inh: blocks the CtBP interaction with E1A; AID 651724; activity change, % (no concentration beside the values); AlphaScreen GST-E1A/His-CtBP binding, 1536-well; active compounds read low; control for the full effect not named in the record; 340,000 tested, 0.49% active; in the data active means activity change below about -65%; inconclusive means about -30% to -65%; inactive means above about -30%; further: on the % scale 0 is the no-effect control and ±100 the full control effect
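In 5 uL wells, 23 nL compound meets equimolar GST-E1A and His-CtBP (5X stock 125 nM each) for 2 h, 37 °C. Beads (5X, 50 ug/mL) then 1 h, 37 °C, dark.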
TRPML1 ag: human mucolipin-1 channel agonism. TRPML1-expressing cells, Ca2+ dye fluorescence, FDSS; host cell line not named in the record; reference of the full effect not given here. 410,000 tested, 0.12% active. AID 624414. Q9GZU1. activation, % (no concentration beside the values); in the data active = activation above about 50%; inconclusive = about 30% to 50%; inactive = below about 30%; further: 0% is about no effect; the text of the record puts the active cut at 80%
Target sequence (Q9GZU1 whole entry, looked up): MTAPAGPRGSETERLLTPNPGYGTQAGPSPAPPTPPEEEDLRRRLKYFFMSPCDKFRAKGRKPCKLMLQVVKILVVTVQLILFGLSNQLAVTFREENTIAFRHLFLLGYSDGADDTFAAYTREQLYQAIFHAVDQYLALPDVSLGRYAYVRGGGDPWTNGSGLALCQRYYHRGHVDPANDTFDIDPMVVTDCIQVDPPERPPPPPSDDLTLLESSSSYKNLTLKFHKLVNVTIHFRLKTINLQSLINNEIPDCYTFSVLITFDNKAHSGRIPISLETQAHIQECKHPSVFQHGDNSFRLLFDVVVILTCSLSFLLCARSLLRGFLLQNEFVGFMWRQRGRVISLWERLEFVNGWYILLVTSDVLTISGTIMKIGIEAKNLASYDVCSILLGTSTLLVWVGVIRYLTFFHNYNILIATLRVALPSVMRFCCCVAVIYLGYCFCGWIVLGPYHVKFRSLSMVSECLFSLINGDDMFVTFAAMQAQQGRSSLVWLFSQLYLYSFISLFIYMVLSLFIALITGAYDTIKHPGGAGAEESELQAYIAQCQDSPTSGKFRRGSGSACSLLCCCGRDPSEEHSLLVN
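Tet-induced TRPML1-DL cells, 1,500 per well, cultured overnight, were loaded with a no-wash Ca2+ dye for 45–90 min. Calcium fluorescence was recorded on the FDSS for 110 s after compound addition, before the EC80 agonist (4 uM 54-4) was added.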
Six1-Eya2 blk: Six1/Eya2 interaction inhibition | Q15475+O00167 | AlphaScreen GST-Six1/His-Eya2 binding, biochemical; active compounds read low; control for the full effect not named in the record | activity change, % (concentration not given with the values) | 360,000 tested, 0.56% active; in the data active = activity change below about -65%; inconclusive = about -30% to -65%; inactive = above about -30%; further: on the % scale 0 is the no-effect control and ±100 the full control effect
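Six1/Eya2 binding was read as AlphaScreen signal after compounds were pinned into GST-Six1 plus His-tagged Eya2 (5X stock 250/500 nM) in pH 8.0 Tris/NaCl/TCEP buffer, beads added, then incubated 1 h, 37 C, dark.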
D2 ag: agonists of human D2 dopamine receptor (beta-arrestin) | P14416 | activation, % (no concentration beside the values) | DiscoveRx PathHunter D2 beta-arrestin, luminescence, 90 min; 100% = 57 uM dopamine signal | 360,000 tested, 0.084% active; in the data active = activation above about 40%; inconclusive = about 15% to 40%; inactive = below about 15%; further: compound concentration not given in the record; the text of the record calls up to 30% inactive
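Agonist mode: compounds alone added to overnight-plated D2 PathHunter cells for 90 min at 37 C, with 57 uM final dopamine (EC100) defining full response. Beta-arrestin recruitment detected by chemiluminescent reagent, read after 1 h at ambient temperature.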
PINK1 modulator: PINK1 expression modulation | Potency, µM (highest dose often 76.6 µM), for inactives: top-dose activation (PINK1 increase), hits mostly activators | AID 624263 | PINK1 immunofluorescence, high-content cytometry, 24 h | 410,000 tested, 0.2% active; active = well fitted activation curve with a large enough effect; inconclusive = small, poorly fitted or top-dose-only effect; inactive = flat fitted curve, though single readings scatter; cell line not stated here;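 further: potency means the concentration at half of the fitted maximal effect; % of control where 0% means no effect; nearly all actives have a fitted effect of over 65% in size; a mitochondrial uncoupler was the plate control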
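PINK1 protein level read as immunofluorescence by microplate cytometer in a fixed, stained stable cell line after 24 h exposure to five compound concentrations, with CCCP as control.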
Starred values were filed as active, the others as inactive; [ ] = dose if it differs, or a comment.

Results for Cc1ccc(NC(=O)c2cc3nc(C)cc(C)n3n2)cc1 ?
D2 potentiator: -13; CtBP-E1A inh: inconclusive; TRPML1 ag: 2.8; Six1-Eya2 blk: -25; D2 ag: -1.0; PINK1 modulator: -1.7%[38.3 µM]

What do the screens show for `COc1ccc(-c2cccc(-c3nc4ccc(Cl)cn4c3NC3CCCCC3)c2)cc1`?
D2 potentiator: -11; CtBP-E1A inh: 5; TRPML1 ag: -0.6; Six1-Eya2 blk: 0; D2 ag: -6.6; PINK1 modulator: 1.9%

How did CC1(C(=O)NC2CCCCC2)CCC(=O)N1CCOc1ccccc1 (configuration not stated) do in these assays?
D2 potentiator: -6; CtBP-E1A inh: 0; TRPML1 ag: 0.0; Six1-Eya2 blk: 9; D2 ag: -2.9; PINK1 modulator: 0.7%

What do the screens show for `C=C(C)Cn1c(SCC(=O)NCc2ccco2)nc2sc3c(c2c1=O)CCC3`?
D2 potentiator: 12; CtBP-E1A inh: -4; TRPML1 ag: 0.1; Six1-Eya2 blk: -17; D2 ag: 0.3; PINK1 modulator: 1.0%

Results for CCN1C(=O)Nc2cccc3cccc1c23 ?
D2 potentiator: -2; CtBP-E1A inh: -8; TRPML1 ag: 1.9; Six1-Eya2 blk: -3; D2 ag: 4.1; PINK1 modulator: 0.8%

How did CCOC(=O)C1CCN(c2c(N3CCCCCC3)c(=O)c2=O)CC1 do in these assays?
D2 potentiator: -4; CtBP-E1A inh: 5; TRPML1 ag: -0.6; Six1-Eya2 blk: -4; D2 ag: -5.8; PINK1 modulator: -0.2%

What do the screens show for `COc1cccc(-n2nnnc2SCC(=O)Nc2ccc3c(c2)OCCO3)c1`?
D2 potentiator: -20; CtBP-E1A inh: 5; TRPML1 ag: -0.1; Six1-Eya2 blk: -4; D2 ag: 2.6; PINK1 modulator: 3.3%

How did O=C(NCCOc1ccccc1F)c1cccc(S(=O)(=O)N2CCN(c3ccccc3)CC2)c1 do in these assays?
D2 potentiator: 29; CtBP-E1A inh: -2; TRPML1 ag: 1.3; Six1-Eya2 blk: -2; D2 ag: 3.2; PINK1 modulator: 2.2%

What do the screens show for `Cc1ccc(NC(=O)C2CCCN(c3ncccn3)C2)cc1F` (configuration not stated)?
D2 potentiator: -4; CtBP-E1A inh: -11; TRPML1 ag: 0.7; Six1-Eya2 blk: -1; D2 ag: -2.1; PINK1 modulator: 0.4%[38.3 µM]

How did Cc1cc2occ(CC(=O)N(C)CC(=O)Nc3ccccc3Cl)c2cc1C do in these assays?
D2 potentiator: -14; CtBP-E1A inh: -2; TRPML1 ag: 1.1; Six1-Eya2 blk: 0; D2 ag: -2.9; PINK1 modulator: 0.2%

The list goes on; the last 3 above are carried over.
How did O=C(NCCOc1ccccc1F)c1cccc(S(=O)(=O)N2CCN(c3ccccc3)CC2)c1 do in these assays?
D2 potentiator: 29; CtBP-E1A inh: -2; TRPML1 ag: 1.3; Six1-Eya2 blk: -2; D2 ag: 3.2; PINK1 modulator: 2.2%

What do the screens show for `Cc1ccc(NC(=O)C2CCCN(c3ncccn3)C2)cc1F` (configuration not stated)?
D2 potentiator: -4; CtBP-E1A inh: -11; TRPML1 ag: 0.7; Six1-Eya2 blk: -1; D2 ag: -2.1; PINK1 modulator: 0.4%[38.3 µM]

How did Cc1cc2occ(CC(=O)N(C)CC(=O)Nc3ccccc3Cl)c2cc1C do in these assays?
D2 potentiator: -14; CtBP-E1A inh: -2; TRPML1 ag: 1.1; Six1-Eya2 blk: 0; D2 ag: -2.9; PINK1 modulator: 0.2%

How did O=C(N/N=C/c1cccs1)c1ccc(-n2cccc2)cc1 do in these assays?
D2 potentiator: -16; CtBP-E1A inh: -4; TRPML1 ag: -0.6; Six1-Eya2 blk: -7; D2 ag: 0.8; PINK1 modulator: 10%

Results for CC1CCCC(NC(=O)COC(=O)/C=C/c2ccc3c(c2)OCO3)C1C (configuration not stated) ?
D2 potentiator: -7; CtBP-E1A inh: 8; TRPML1 ag: -1.1; Six1-Eya2 blk: 2; D2 ag: 0.5; PINK1 modulator: -0.5%

How did CCOC(=O)C1(CCOc2ccccc2)CCN(Cc2cccn2-c2cccnc2)CC1 do in these assays?
D2 potentiator: -9; CtBP-E1A inh: 1; TRPML1 ag: 1.9; Six1-Eya2 blk: -18; D2 ag: 1.3; PINK1 modulator: 1.1%

How did CC(C)c1cccc(C(C)C)c1Nc1cn[nH]c1 do in these assays?
D2 potentiator: 21; CtBP-E1A inh: -14; TRPML1 ag: -0.6; Six1-Eya2 blk: -13; D2 ag: 8.1; PINK1 modulator: 6.3%

What do the screens show for `Cc1ccc(C2NNC(=O)C2NC(=O)c2ccccc2)cc1` (configuration not stated)?
D2 potentiator: -11; CtBP-E1A inh: 7; TRPML1 ag: -0.2; Six1-Eya2 blk: 9; D2 ag: -1.5; PINK1 modulator: -0.1%

How did O=C1/C(=C/c2ccccn2)SC(=S)N1c1cccc(O)c1 do in these assays?
D2 potentiator: -10; TRPML1 ag: 0.0; Six1-Eya2 blk: -14; D2 ag: -1.5; PINK1 modulator: 2.7%

Results for CCN1CCN(C(=O)Nc2cc(Cl)ccc2OC)CC1 ?
D2 potentiator: -10; CtBP-E1A inh: 0; TRPML1 ag: -0.5; Six1-Eya2 blk: -3; D2 ag: -7.3; PINK1 modulator: 1.8%

What do the screens show for `COc1cc(C)nc(Oc2ccc(/C=N/O)cc2)n1`?
D2 potentiator: 18; CtBP-E1A inh: 1; TRPML1 ag: -1.5; Six1-Eya2 blk: 12; D2 ag: 0.7; PINK1 modulator: -1.0%

How did Cc1cccc(NC(=O)Cn2cccc2)c1 do in these assays?
D2 potentiator: -5; CtBP-E1A inh: 2; TRPML1 ag: 0.3; Six1-Eya2 blk: -1; D2 ag: -0.8; PINK1 modulator: -6.9%[38.3 µM]

Results for CC(=O)N/C(=C\c1cccc([N+](=O)[O-])c1)C(=O)NC(C)C ?
D2 potentiator: 8; CtBP-E1A inh: -2; TRPML1 ag: 0.5; Six1-Eya2 blk: 7; D2 ag: 0.1; PINK1 modulator: -1.1%

Results for Cc1nnc(SCC(=O)c2cc(C)n(-c3ccc4c(c3)OCO4)c2C)s1 ?
D2 potentiator: 3; CtBP-E1A inh: 2; TRPML1 ag: 9.4; Six1-Eya2 blk: -15; D2 ag: 0.5

What do the screens show for `O=C1CC(Sc2ccc(Cl)cc2)C(=O)N1c1ccc2c(c1)OCCO2` (configuration not stated)?
D2 potentiator: -9; CtBP-E1A inh: -1; TRPML1 ag: 0.3; Six1-Eya2 blk: -2; D2 ag: -1.3; PINK1 modulator: 0.5%

How did Nc1nc(N)nc(-c2ccccn2)n1 do in these assays?
D2 potentiator: 2; CtBP-E1A inh: -73*; TRPML1 ag: -1.9; Six1-Eya2 blk: -81*; D2 ag: -0.8; PINK1 modulator: 3.0%

How did CSc1ccc(-c2cc(=O)c3ccccc3o2)cc1 do in these assays?
D2 potentiator: -14; CtBP-E1A inh: 0; TRPML1 ag: 0.2; Six1-Eya2 blk: 1; D2 ag: -2.3; PINK1 modulator: 8.0%[38.3 µM]

Results for C[C@H](CO)N1C[C@H](C)[C@H](CN(C)Cc2ccncc2)Oc2ncc(C#CC3CC3)cc2C1=O ?
D2 potentiator: -3; CtBP-E1A inh: 3; TRPML1 ag: -0.2; Six1-Eya2 blk: -1; D2 ag: -2.1; PINK1 modulator: 1.2%

How did CCOc1ccc(S(=O)(=O)Nc2cc(C)ccn2)c2ccccc12 do in these assays?
D2 potentiator: -4; CtBP-E1A inh: 5; TRPML1 ag: -0.8; Six1-Eya2 blk: 0; D2 ag: -3.2; PINK1 modulator: 0.5%[38.3 µM]

What do the screens show for `CCCCNC(=O)Nc1c(C(=O)OC)[nH]c2ccc(C)cc12`?
D2 potentiator: 0; CtBP-E1A inh: 21; TRPML1 ag: 0.0; Six1-Eya2 blk: 8; D2 ag: -1.5; PINK1 modulator: 14%

What do the screens show for `CCOc1cc(C(=O)Nc2cc(OC)cc(OC)c2)ccc1OCC(=O)N1CCOCC1`?
D2 potentiator: 3; TRPML1 ag: -1.6; Six1-Eya2 blk: -17; D2 ag: 1.1; PINK1 modulator: 1.3%

How did N#Cc1ccc(NC(=O)COC(=O)C2=COCCO2)cc1 do in these assays?
D2 potentiator: -11; CtBP-E1A inh: 0; TRPML1 ag: 0.2; Six1-Eya2 blk: 0; D2 ag: -3.5; PINK1 modulator: -1.5%

What do the screens show for `c1ccc(CSc2nnc(-c3ccco3)c(-c3ccco3)n2)cc1`?
D2 potentiator: 9; CtBP-E1A inh: -19; TRPML1 ag: -0.6; Six1-Eya2 blk: inconclusive; D2 ag: -0.3; PINK1 modulator: 2.0%[38.3 µM]

Results for COCCNc1nc2nonc2nc1N1CCCC1c1nccs1 (configuration not stated) ?
D2 potentiator: 9; CtBP-E1A inh: -12; TRPML1 ag: 0.9; Six1-Eya2 blk: -13; D2 ag: 7.2; PINK1 modulator: 0.7%

How did COc1ccc(OC)c(N/C=C/C(=C(C#N)C#N)N(C)C)c1 do in these assays?
D2 potentiator: -11; CtBP-E1A inh: -3; TRPML1 ag: -0.6; Six1-Eya2 blk: -8; D2 ag: -2.1; PINK1 modulator: 11%

Results for COc1ccc(C(=O)Nn2c(SCC(=O)NCC3CCCO3)nc3ccccc3c2=O)cc1 (configuration not stated) ?
D2 potentiator: 5; CtBP-E1A inh: -18; TRPML1 ag: 0.7; Six1-Eya2 blk: -11; D2 ag: -4.2; PINK1 modulator: -3.7%

How did Cc1c(Cl)cccc1NC(=O)CSc1nnc(C)n1CC1CCCO1 (configuration not stated) do in these assays?
D2 potentiator: -2; CtBP-E1A inh: -22; TRPML1 ag: 1.0; Six1-Eya2 blk: 14; D2 ag: -0.9; PINK1 modulator: -0.3%

Results for COc1cc(/C=C2/C(=O)NN(c3ccccc3)C2=O)cc(Br)c1O ?
D2 potentiator: -5; TRPML1 ag: 0.0; Six1-Eya2 blk: 4; D2 ag: -1.2; PINK1 modulator: 1.3%

How did COc1ccc(/C=C/C(=O)OCC(=O)N2CC(=O)Nc3ccccc32)cc1S(=O)(=O)N1CCOCC1 do in these assays?
D2 potentiator: -13; TRPML1 ag: 0.6; Six1-Eya2 blk: -1; D2 ag: -1.3; PINK1 modulator: 9.5%

Results for COc1ccc(OC)c(NC(=O)NNC(=O)c2cc3occc3[nH]2)c1 ?
D2 potentiator: -11; TRPML1 ag: -0.7; Six1-Eya2 blk: inconclusive; D2 ag: 2.2; PINK1 modulator: 0.8%

What do the screens show for `O=C(Cc1c(F)cccc1Cl)Nc1nc2ccccc2s1`?
D2 potentiator: -10; CtBP-E1A inh: 3; TRPML1 ag: 0.7; Six1-Eya2 blk: -1; D2 ag: -4.6; PINK1 modulator: 1.8%

What do the screens show for `Cc1ccc2c(c1)N(C(=O)CSc1nncn1C)C(C)(C)c1ssc(=S)c1-2`?
D2 potentiator: -23; CtBP-E1A inh: inconclusive; TRPML1 ag: -0.3; Six1-Eya2 blk: inconclusive; D2 ag: -7.1; PINK1 modulator: 3.0%

What do the screens show for `Cc1ccc(C(C)C)c(OCC(=O)Nc2ccc(N3CCN(S(C)(=O)=O)CC3)cc2)c1`?
D2 potentiator: 11; CtBP-E1A inh: 0; TRPML1 ag: -0.6; Six1-Eya2 blk: -2; D2 ag: -2.9; PINK1 modulator: 9.5%

High-throughput results from PubChem BioAssay.
